H5N1 CPE: antiviral screen in MDCK cells, H5N1 avian flu; cytopathic effect, luminescence, 72 h; active compounds read high; no value below 0 was filed and about half of the inactive calls have no number; reference of the scale not given here; hit rate 0.07% among 96,000; inhibition, % at 50 µM; in the data active = inhibition above about 25%
Starred values were filed as active, the others as inactive; i = inactive.

| SMILES | H5N1 CPE |
| --- | --- |
| Cc1nn2c(c1-c1ccc(Cl)cc1)N=C(c1ccco1)CC2c1ccccc1 (configuration not stated) | 1.2 |
| C(#Cc1ccc(C#CCN2CCCC2)cc1)CN1CCCC1 | 0.2 |
| FC(F)(F)c1nnc2c(Sc3ccccc3)nc3ccc(Cl)cc3n12 | 7.5 |
| Cc1ccc(Cl)cc1-n1c(O)c(C=NCCCN2CCOCC2)c(=O)[nH]c1=O | i |
| COCCn1nnnc1C(c1ccc2ncccc2c1)N1CCc2ccccc21 (configuration not stated) | i |
| COCCn1c(=O)[nH]c2cc(C(=O)NCCN3CCN(c4ccc(OC)cc4)CC3)ccc2c1=O | 0.3 |
| CCCNS(=O)(=O)c1ccc(CCC(=O)N2CCCCC2)cc1 | 0.5 |
| N#CCSc1nnc(CNc2cccc(Cl)c2)o1 | 14.4 |
| O=C(O)CCS(=O)(=O)c1nc(-c2cccs2)cc(C(F)(F)F)n1 | i |
| CCN1C(=O)CS/C1=N\c1nccs1 | 0.1 |
| O=C(CCN1CCOCC1)NCC(=O)Nc1ccc(Br)cc1C(=O)c1ccccc1 | i |
| O=S(=O)(CCn1cccc1)CCn1cccc1 | 0.4 |

Going on with the list:
| SMILES | H5N1 CPE |
| --- | --- |
| Cn1c(CN2CCN(CC#N)CC2)c(C#N)c2ccccc21 | i |
| CCCC(=O)Nc1ccccc1NC(=O)C1CCCCC1 | 0.7 |
| Cc1ccc(S(=O)(=O)/N=C2/NC(=O)/C(=C\c3ccco3)S2)cc1 | 0.5 |
| COc1cc(/C=N/n2cnnc2)ccc1OC(=O)N(C)C | 0.1 |
| CCOC(=O)CCc1c(C)c(C#N)c2nc3ccccc3n2c1-n1ccnc1 | 0.8 |
| O=c1cc(CN2CCc3ccccc32)nc2sccn12 | i |
| O=C1N2CN(C(c3ccccc3)c3ccccc3)CN=C2SC1(CO)CO | 0.0 |
| Cc1cc(Nc2ccccc2)nc(N)n1 | 0.4 |
| COc1ccc(CCN(Cc2cccs2)S(=O)(=O)c2ccc(-n3cnnn3)cc2)cc1OC | 2.1 |
| Cc1cccc(NC(=S)NC(=O)c2cc(-c3ccccc3)nc3ccccc23)c1 | i |
| Cc1cccc(Cc2c(C)nc3c(C(=O)NCc4ccco4)cnn3c2C)c1 | 1.4 |
| CCOC(=O)NC(NCCc1ccccc1)(C(F)(F)F)C(F)(F)F | i |

(list continues)
| SMILES | H5N1 CPE |
| --- | --- |
| Fc1ccc(-c2nnc(-c3ccc(Cl)cc3)o2)cc1 | i |
| O=C(CCNS(=O)(=O)c1cccc2nonc12)NCc1cccs1 | 0.0 |
| O=S(=O)(CCc1nc2ccccc2o1)c1ccc2ccccc2c1 | 0.6 |
| CCc1ccc(/C=N/NC(=O)c2ccc(OC3CCCC3)cc2)s1 | i |
| Cc1ccc(CSc2nc3c(c(SCC(=O)O)n2)CCCC3)cc1 | i |
| N#Cc1nc(N2CCCC2)nc(N2CCCC2)n1 | 1.1 |
| Cc1cc(C)n(-c2ccc3cccc(NS(C)(=O)=O)c3n2)n1 | 0.4 |
| C=CCn1c(Br)nc2c1c(=O)[nH]c(=O)n2C | i |
| Cc1nn(Cc2ccccc2)c(Cl)c1C(=O)OC1CCOC1=O (configuration not stated) | i |
| CCn1c(SCC(=O)NCC2CCCO2)nc2cc(S(=O)(=O)N3CCCCC3)ccc21 (configuration not stated) | 1.0 |
| C1=C(CCNCC2CCCCC2)CCCC1 | 3.4 |
| O=C(Nc1ccc(-n2ccnc2P(=O)(O)c2ccccc2)cc1)c1ccccc1Cl | 0.8 |

Additional entries
| SMILES | H5N1 CPE |
| --- | --- |
| O=C1c2cccnc2C(=O)N1Cc1ccccc1 | i |
| COc1cc2nc(C3CC3)n(NC(=O)c3ccc(Cl)cc3)c(=O)c2cc1OC | i |
| CSc1ccccc1NC(=O)CN(C1CCCCC1)S(C)(=O)=O | 2.5 |
| Cc1ccc(C)c(N2CCN(C(=O)CN(C)S(=O)(=O)c3ccc4c(c3)CCC(=O)N4)CC2)c1 | 2.5 |
| N#CCCn1ncc2ccccc21 | i |
| CC(C)CC(=O)n1sc(NC(=O)c2ccccc2)nc1=O | 0.2 |
| O=C(CNC(=O)c1cccs1)NCC(=O)OCc1c(Cl)cccc1Cl | 0.7 |
| CC(CN(C)Cc1ccccc1)OC(=O)c1cccs1 (configuration not stated) | i |
| Cc1ccccc1C(=O)/C=C1\NC(=O)CS1 | 0.1 |
| COc1ccc(N2C(C(C)=O)=NN(c3ccccc3)C2c2cccs2)cc1 (configuration not stated) | 0.2 |
| O=C1/C(=C/c2ccccc2)NC(=S)N1C(c1ccccc1)c1ccccc1 | i |
| COc1ccc(O)c(-c2[nH]ncc2C(=O)c2ccccc2C)c1 | 0.2 |

(list continues)
| SMILES | H5N1 CPE |
| --- | --- |
| CN1CCN(C(=O)NC2CCCN2S(=O)(=O)c2ccc(Cl)cc2)CC1 (configuration not stated) | 1.2 |
| O=c1c2ccccc2nc2sc3ccccc3n12 | i |
| O=C(Nc1c(F)cc(F)cc1Br)c1cccnc1 | 1.0 |
| O=C(Nc1ccc(F)cc1)NC1CCN(Cc2nnnn2Cc2ccco2)CC1 | i |
| CCCCNC(=O)c1onc(CSc2ccc(Cl)cc2)c1C(=O)O | 0.9 |
| O=C(CSCc1cccc(F)c1)N1CCN(c2ccccc2)CC1 | i |
| O=C(Nc1ccc(F)cc1)c1ccccc1CC[N+](=O)[O-] | 0.1 |
| O=C(Cn1nnc(-c2ccccc2-n2cnnn2)n1)c1ccccc1 | 0.4 |
| CCOC(=O)C(=O)/C(C#N)=C/Nc1ccc(F)cc1 | i |
| Cc1nn(C2CCCCC2)c(N)c1-c1ccccc1 | i |
| COc1ccccc1NS(=O)(=O)c1cccs1 | i |
| CC(C)(C)NC(=O)C(c1ccncc1)N(C(=O)Cn1nnc(-c2cccs2)n1)C1CCCCC1 (configuration not stated) | i |

(further entries)
| SMILES | H5N1 CPE |
| --- | --- |
| CC(=O)C1C(c2ccc(OC(F)F)cc2)NC(=O)NC1(O)C(F)(F)F (configuration not stated) | i |
| CCCCc1nc2n[nH]c(N)c2c2c1CCC2 | i |
| O=C(c1cc(-c2ccc(F)cc2)on1)N1CCCC1 | i |
| CCc1ccc(CN2CC(C(=O)O)CC2=O)cc1 (configuration not stated) | i |
| Cc1ccc(-c2nc(CS(=O)CC(=O)N3CCC4(CC3)OCCO4)c(C)o2)cc1 (configuration not stated) | 0.8 |
| CCN1C(=O)C2(C(C(=O)c3ccc(C)o3)=C(O)C(=O)N2CCCN2CCOCC2)c2ccccc21 (configuration not stated) | 0.7 |
| Cc1ccc(C(=O)NNC(=O)c2cc(OCC(F)(F)F)ccc2OCC(F)(F)F)cc1 | i |
| Cn1c(=O)c2cc(S(=O)(=O)NC(C(=O)NC3CCCCC3)c3ccccc3)ccc2n(C)c1=O (configuration not stated) | 0.1 |
| CCCC(=O)NC(c1ccco1)c1cc(Cl)c2cccnc2c1O (configuration not stated) | i |
| COc1cc(OC)cc(C(=O)N2CCN(c3ncccn3)CC2)c1 | i |
| Cc1ccccc1Cn1nnc(-c2cccc(C(=O)O)c2)n1 | i |
| Cc1ccc(CNC(=O)CN2CCN(Cc3ccc(Cl)cc3)C2=O)cc1 | i |

The results go on.
| SMILES | H5N1 CPE |
| --- | --- |
| CO/N=C(\c1nonc1N)N1CCN(c2ccc(Cl)cc2[N+](=O)[O-])CC1 | 0.7 |
| CC(=O)n1cc(C2C(=O)CCCC2=O)c2ccccc21 | i |
| COc1ccc(NC(=O)c2ccccc2NC(=O)NC2CCCCC2)cc1 | i |
| COc1cccc(-n2nc(-c3ccnn3-c3ccc(F)cc3)c(=O)n(C)c2=O)c1 | 0.5 |
| Cn1c(C(=O)NC2CCCCCC2)cc2c(=O)n(C)c3ccccc3c21 | 2.2 |
| O=C(CCl)Nc1cccn2ncnc12 | 0.5 |
| O=C1NCC(c2ccccc2)C1C(=O)N/N=C\c1ccc(-c2ccc(Cl)c(Cl)c2)o1 (configuration not stated) | i |
| CC1(C)SC(=S)N(NC(=O)Nc2ccccc2)C1N(O)C(=O)Nc1ccccc1 (configuration not stated) | i |
| O=C(NCCc1ccccc1)/C(=C\c1ccc([N+](=O)[O-])cc1)NC(=O)c1ccccc1 | i |
| Cc1nn(C)cc1CNC(=O)c1cnn2c(C(F)F)cc(C3CC3)nc12 | 1.6 |
| COc1nc(NC(C)=O)nc(C)c1Br | i |
| COc1ccc(C(=O)Nc2cccc3cccnc23)cc1OC | 0.8 |

Other results follow:
| SMILES | H5N1 CPE |
| --- | --- |
| CCCCc1n[nH]c2c1/C(=N/O)CC(c1ccccc1)C2 (configuration not stated) | i |
| CCCSCCCNC(=O)Cn1cc2c(n1)CCCCC2 | i |
| Nc1ccc(S(=O)(=O)N2CC3CC(C2)c2cccc(=O)n2C3)cc1 (configuration not stated) | 0.5 |
| Cc1cnn(Cc2ccccc2)c1N | 0.5 |
| COc1ccc(CCNC(=O)CN(C)S(=O)(=O)c2cccs2)cc1OC | 0.7 |
| Cc1ccc(-c2nc3cccnc3o2)cc1NC(=O)COc1ccc(Cl)cc1C | i |
| Cc1ccc(SCC(=O)N(Cc2nc(-c3ccccc3)no2)C(C)C)cc1 | 1.4 |
| CCc1ccc(C(=O)Cn2ncc(Cl)c(Cl)c2=O)cc1 | i |
| CCC(=O)Nc1cc(NC(=O)CSc2nnc(C(C)C)n2CC)ccc1C | 1.5 |
| CCOc1nc(-c2ccncc2)nc2ccccc12 | i |
| COc1cc(-c2csc(N3CCOCC3)n2)cc(OC)c1OC | i |
| Cn1c(=O)c(=O)n(C)c2cc(S(=O)(=O)N3CCCCC3)ccc21 | 2.3 |

Remaining list, next part
| SMILES | H5N1 CPE |
| --- | --- |
| CC(NC(=O)NC1CCCCC1)C(c1cccs1)N1CCOCC1 (configuration not stated) | i |
| C=CCn1c(SCc2ccc(F)cc2)nc2c1c(=O)[nH]c(=O)n2C | 1.1 |
| O=C(Nc1ccc(F)cc1F)c1sccc1SCc1cccc(C(F)(F)F)c1 | i |
| COc1ccc(S(=O)(=O)N2CCN(Cc3ccc(Cl)cc3)CC2)cc1 | i |
| CCOc1ccc(NC(=O)CSCC(=O)O)cc1 | 0.2 |
| C=CCN1C(=O)NC2(O)C(=O)c3ccccc3C12O (configuration not stated) | 0.6 |
| O=c1cc(N2CCN(c3ccc(F)cc3)CC2)[nH]c(=O)n1Cc1ccc(F)cc1 | i |
| CCOC(=O)CCc1c(C)n(CC)c2ncnn2c1=O | 0.8 |
| Cc1cccc(C)c1NC(=O)C1CCCNC1 (configuration not stated) | i |
| CN(C(=O)c1ccncc1)c1nnc(-c2cnccn2)s1 | 0.8 |
| COc1cccc(-c2cc(C(=O)Nc3ccc(OC)c(OC)c3)no2)c1 | i |
| COC(=O)c1cccc(C(=O)Nc2cnc3ccccc3c2)n1 | 1.0 |

Overlap with the part before: 2 compounds; new compounds follow.
| SMILES | H5N1 CPE |
| --- | --- |
| COc1cccc(-c2cc(C(=O)Nc3ccc(OC)c(OC)c3)no2)c1 | i |
| COC(=O)c1cccc(C(=O)Nc2cnc3ccccc3c2)n1 | 1.0 |
| CC1(C)CN=C(NC2CCCCC2)S1 | i |
| O=C1CC(c2cccnc2)c2cc3c(cc2N1)OCCO3 (configuration not stated) | 2.4 |
| CCOc1ccc(Nc2nc(Cc3nnc(SCC(=O)NC4CCCC4)n3C)cs2)cc1 | i |
| COc1ccc(/C=N/c2oc(-c3ccccc3)cc2C#N)cc1 | i |
| COC(=O)c1oc2ccc(Cl)cc2c1N | i |
| CCOC(=O)C1CCN(Cc2cnc(Oc3ccc(N)cc3)s2)CC1 | 1.3 |
| Cc1ccc(S(=O)(=O)Nc2cccc3cccnc23)cc1 | 0.9 |
| Cc1cccc(C)c1NC(=O)CSc1ncnc2nc[nH]c12 | 1.6 |
| O=c1[nH]c2ccccc2c(=O)n1-c1cccc(Cl)c1 | i |
| O=C(Cc1cn2ccsc2n1)NCc1ccccc1 | i |
| O=[N+]([O-])c1cc(C(F)(F)F)ccc1Sc1nccn1Cc1ccccc1 | 0.6 |
| Cc1cc(/C=N/n2cnnc2)c(C)n1-c1cccc(C(=O)O)c1 | 0.1 |

Further structures
| SMILES | H5N1 CPE |
| --- | --- |
| O=C(NCCSCc1c(F)cccc1Cl)c1ccco1 | i |
| Cc1noc(C)c1CSc1ccccc1C(=O)Nc1nccs1 | i |
| O=C(Nc1ccc(Cl)cc1C(=O)NCc1cccnc1)c1ccco1 | i |
| O=C(c1cnccn1)N1CCc2ccccc21 | i |
| CN1CCN(C(CNS(=O)(=O)c2ccc(F)cc2)c2cccnc2)CC1 (configuration not stated) | i |
| O=C(Cn1[nH]c(=O)c2ccccc2c1=O)NC1CCCCCC1 | 1.2 |
| O=C(Nc1ccccc1)NC1CCCCC1 | i |
| Cc1cccc2cc(COC(=O)c3ccccn3)c(=O)[nH]c12 | i |
| O=C(CSc1nncs1)Nc1ccc2c(c1)OCCO2 | 0.4 |
| O=C(CSc1nnc(-c2cnccn2)n1Cc1ccco1)c1ccc(Cl)c(Cl)c1 | 1.4 |
| COc1ccc2c(c1OC)C(=O)N1c3ccccc3C(=O)N(c3ccc(F)cc3)C21 (configuration not stated) | i |
| CCOC(=O)C1CCCN(C(=O)CCCOc2cc(=O)n(C)c3ccccc23)C1 (configuration not stated) | 1.6 |

Remaining list, next part.
| SMILES | H5N1 CPE |
| --- | --- |
| CCOC(=O)N1CCN(c2ccc(S(=O)(=O)N(Cc3ccccc3)Cc3ccccc3)cn2)CC1 | i |
| CCOc1ccc(N2CC(=O)SC2=S)cc1 | i |
| O=c1[nH]c(=O)n(Cc2ccc(F)cc2)c(O)c1C=NCC1CCCO1 (configuration not stated) | i |
| CN(C)c1nc(C#N)nc(N2CCOCC2)n1 | i |
| O=C(COc1cccc(Cl)c1)Nc1ccc(N2CCOCC2)cc1 | 0.9 |
| COc1ccc(-c2cn3cc(C)ccc3n2)cc1OC | i |
| Cc1ccc(-c2cc(C(=O)Nc3cc(C)on3)c3ccccc3n2)c(C)c1 | i |
| CC(C)CN(C#N)c1nc(N2CCOCC2)nc(N2CCOCC2)n1 | 1.5 |
| O=C(COc1ncnc2c(Cl)cc(Cl)cc12)N1CCN(S(=O)(=O)c2ccccc2)CC1 | 0.3 |
| CCn1c(Cc2ccc(OC)cc2)nnc1SCC(=O)Nc1cccc(C(=O)OC)c1 | i |

A different layout for part of the listing above.
structure: O=C1CC(c2cccnc2)c2cc3c(cc2N1)OCCO3 (configuration not stated)
  H5N1 CPE: 2.4

structure: Cn1c(=O)c2cc(S(=O)(=O)NC(C(=O)NC3CCCCC3)c3ccccc3)ccc2n(C)c1=O (configuration not stated)
  H5N1 CPE: 0.1

Bioassay records as filed in PubChem BioAssay.

Not all compounds are listed, so the mix of outcomes need not match the whole.
